MenB inh: inhibitors of Mycobacterium tuberculosis MenB enzyme | MenB enzyme assay, absorbance read-out; some hits fall short of the stated cut | inhibition, %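 (about 12 µg/mL by stock and volumes)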 | 0.43% of 100,000 active | AID 540299;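 active means mean of two replicates above 30%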;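 further: 0% = no compound and 100% = wells with inactive enzyme; the first replicate is given; strong numbers were not always called active; inactives centre near -10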
PV pol inh: poliovirus RNA polymerase inhibition; P03300; poliovirus polymerase elongation, fluorescence polarization; active compounds read low; % elongation, % (compound at 16.7 µg/mL); 0.66% of 150,000 active; AID 588519; in the data active means % elongation below about 90%; further: some results filed as inactive read as strong as hits
Target sequence (P03300 1749-2209 limits assumed): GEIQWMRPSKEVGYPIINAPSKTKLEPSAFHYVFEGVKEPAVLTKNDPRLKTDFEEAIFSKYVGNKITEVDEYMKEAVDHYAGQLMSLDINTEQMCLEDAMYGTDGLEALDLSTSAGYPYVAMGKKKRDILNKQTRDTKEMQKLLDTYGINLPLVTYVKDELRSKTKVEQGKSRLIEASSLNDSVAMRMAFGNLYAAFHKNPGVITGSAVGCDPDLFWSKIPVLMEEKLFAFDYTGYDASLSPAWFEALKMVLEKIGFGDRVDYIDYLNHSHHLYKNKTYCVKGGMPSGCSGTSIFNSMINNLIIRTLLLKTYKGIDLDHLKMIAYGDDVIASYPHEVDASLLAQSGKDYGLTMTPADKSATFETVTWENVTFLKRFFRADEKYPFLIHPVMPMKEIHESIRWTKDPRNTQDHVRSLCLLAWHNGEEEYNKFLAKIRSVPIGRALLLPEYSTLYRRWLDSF
MbtI inh: inhibitors of Mycobacterium tuberculosis siderophore enzyme MbtI. inhibition, %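 (about 17 µg/mL by stock and volumes)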. purified MbtI enzyme, fluorescence intensity read-out. P9WFX0. 0.89% of 100,000 active;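 active means above 50% in both replicates, above 80% if mildly self-fluorescent; inactive means the rest, strongly fluorescent compounds included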;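 further: 0% = mean of negative and 100% = mean of positive controls; one replicate is shown; some compounds called inactive have numbers as strong as hits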
Target sequence (P9WFX0 whole entry, looked up): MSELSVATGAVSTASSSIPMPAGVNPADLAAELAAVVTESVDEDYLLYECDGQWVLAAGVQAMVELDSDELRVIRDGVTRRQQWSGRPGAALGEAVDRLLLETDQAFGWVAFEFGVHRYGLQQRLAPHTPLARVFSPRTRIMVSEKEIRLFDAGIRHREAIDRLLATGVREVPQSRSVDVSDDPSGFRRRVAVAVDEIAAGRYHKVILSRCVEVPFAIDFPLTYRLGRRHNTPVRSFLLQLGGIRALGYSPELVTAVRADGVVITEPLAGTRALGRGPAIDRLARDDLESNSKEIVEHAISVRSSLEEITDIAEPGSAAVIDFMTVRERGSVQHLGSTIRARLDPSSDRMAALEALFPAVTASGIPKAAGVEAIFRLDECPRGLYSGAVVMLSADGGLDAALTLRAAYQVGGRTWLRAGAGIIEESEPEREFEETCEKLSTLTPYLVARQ
PV pol inh intensity: recorded beside PV pol inh, whose call it bears; % elongation; measured here: total intensity read-out; formula for this scale not given here;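 total fluorescence in place of polarization; lower means less elongation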
Active calls of the source: *; i = inactive; x = no result given.

Fields – MenB inh, PV pol inh, PV pol inh intensity, MbtI inh
[1] COc1cc2c3cc1Oc1c(OC)c(OC)cc4c1[C@@H](Cc1cccc(c1)Oc1ccc(c(O)c1)C[C@@H]3N(C)CC2)N(C)CC4
    3, 99, 102, 129
[2] COc1cc(C(=O)N2CCN(CC(=O)Nc3ccc(Cl)c(C(F)(F)F)c3)CC2)cc(OC)c1OC
    -4, 99, 103, 15
[3] O=c1/c(=C/C=C/c2ccccc2)sc2nc3ccccc3n12
    -10, 107, 167, x
[4] O=C(NCc1ccccc1)c1ccc(COc2ccccc2Br)o1
    -2, 100, 103, 11
[5] Cc1nn(C2CCS(=O)(=O)C2)c(Cl)c1/C=C1\C(=O)N(C)C(=S)N1C (stereo unspecified)
    -56, 108, 110, 14
[6] COc1ccc(-c2csc(C3COc4ccccc4O3)n2)c(OC)c1 (stereo unspecified)
    -12, 104, 112, x
[7] Cc1nn(-c2ccccc2)c2[nH]cc(C(=O)Nc3ccccc3)c(=O)c12
    -20, 99, 107, -190
[8] O=C(COc1ncnc2sc3c(c12)CCC3)NCCN1C(=O)CSC1=O
    -18, 101, 106, -5
[9] CC1Cc2ccccc2N1CC(=O)Nc1ccc(SC(F)F)cc1 (stereo unspecified)
    -19, 101, 105, 1
[10] COCCOC(=O)c1c(C)oc2ccc(OCc3cc(C(=O)OC)oc3C)cc12
    -14, 103, 103, -5
[11] COC(=O)c1cc2c(ccn2-c2ccc(F)cc2)n1CC(=O)N1CCCCC1
    -35, 102, 103, 49
[12] Cc1ccc(N2C(=O)C(F)(F)C2c2ccccc2)cc1 (stereo unspecified)
    x, 102, 102, -2
[13] Cn1nnnc1SCC(=O)NN1C(=O)NC(C)(c2ccccc2)C1=O (stereo unspecified)
    -1, 107, 112, -11
[14] O=C(Nc1ccc(Cl)cc1)Nc1csc(N2CCCCC2)n1
    -5, 146, 165, -17
[15] NS(=O)(=O)c1ccc(Cl)nc1
    -25, 107, 101, -19

Entries of single compounds, looked up by structure. Values in the order: MenB inh	PV pol inh	PV pol inh intensity	MbtI inh
CC1Cc2ccccc2N1CC(=O)Nc1ccc(SC(F)F)cc1 (stereo unspecified) is entered as -19	101	105	1
Cc1nn(C2CCS(=O)(=O)C2)c(Cl)c1/C=C1\C(=O)N(C)C(=S)N1C (stereo unspecified) is entered as -56	108	110	14
COc1ccc(-c2csc(C3COc4ccccc4O3)n2)c(OC)c1 (stereo unspecified) is entered as -12	104	112	x

Later entries.
Fields – MenB inh, PV pol inh, PV pol inh intensity, MbtI inh
[16] Cn1c2nc3ccccc3nc2c2c(=O)n(C3CCCC3)cnc21
    -5, 100, 103, -124
[17] CCc1cc2c(=O)c(-c3nc4ccccc4n3C)c(C)oc2c(CN2CCCCC2)c1O
    6, 101, 101, 27
[18] CC(=O)N[C@@H](CS)C(=O)O
    17, 101, 102, -10
[19] CCOC(=O)c1c(-c2ccccc2)oc2ccc(O)cc12
    x, 102, 106, 95
[20] Cc1occc1-c1n[nH]c(=S)o1
    -22, 101, 101, 54
[21] CC(C)c1cc2cc(/C=C/C(=O)O)c(O)cc2o1
    -22, 99, 102, 17
[22] CCOC(=O)C1=C(C)NC(SC)=NC1c1ccc(OC)cc1 (stereo unspecified)
    3, 105, 101, 2
[23] Cc1cccc(N2CC(C(=O)Nc3ccc(N4CCOCC4)cc3)CC2=O)c1C (stereo unspecified)
    -8, 97, 111, -6
[24] COc1ccc(CCNC(=O)C23CC4CC(CC(C4)C2)C3)cc1OC
    x, 102, 100, -6
[25] Cc1nn(C)c2c(=O)c(=O)c2n(C)[nH]1
    -16, 96, 112, 12
[26] O=C1OCCC1Sc1nc2ccccc2c(=O)n1Cc1ccco1 (stereo unspecified)
    16, 101, 102, 8
[27] Cc1cc(=O)oc2c(CNC(CC(C)C)C(=O)O)c(O)ccc12 (stereo unspecified)
    2, 101, 103, x
[28] CCCOc1ccc(/C=C/C(=O)Nc2nccs2)cc1OC
    10, 94, 80, 7
[29] Cc1ccc(C(=O)N(CC(C)C)CC(C)C)cc1C
    -13, 100, 103, -1
[30] Cc1cc2nc(SCCN3CCCC3)[nH]c2cc1C
    12, 99, 99, 9

Some entries already given, reduced to PV pol inh intensity, MenB inh and MbtI inh.
#	Compound	PV pol inh intensity	MenB inh	MbtI inh
29	Cc1ccc(C(=O)N(CC(C)C)CC(C)C)cc1C	103	-13	-1
17	CCc1cc2c(=O)c(-c3nc4ccccc4n3C)c(C)oc2c(CN2CCCCC2)c1O	101	6	27

More results
Fields – MenB inh, PV pol inh, PV pol inh intensity, MbtI inh
[31] COC(=O)Nc1ncc(CN2CCCCC2)s1
    -1, 100, 102, -11
[32] O=C(O)C1CCC(=O)N(C2CCCCC2)C1c1ccccc1Cl (stereo unspecified)
    -14, 104, 104, -12
[33] COC(=O)c1cc(OCc2c(C)noc2C)cc(C(=O)OC)c1
    -10, 100, 102, -5
[34] CCc1cc2c(NC(C)C(=O)O)ncnc2s1 (stereo unspecified)
    16, 101, 102, 0
[35] CS(=O)(=O)c1ccc(Cl)c(NC(=O)CN2CCCSc3ccccc32)c1
    -9, 101, 105, 0
[36] CCc1ccc(C2CC(=O)Nc3n[nH]c(-c4ccccc4)c32)cc1 (stereo unspecified)
    13, 101, 101, -3
[37] O=C(Cc1cccc2ccccc12)NCCOc1ccccc1
    x, 99, 101, -2
[38] O=C(CS(=O)(=O)c1cn(Cc2ccc(Cl)cc2)c2ccccc12)N1CCCCC1
    10, 101, 102, 3
[39] S=C(N=P(c1ccccc1)(N1CCOCC1)N1CCOCC1)NCc1cn2ccsc2n1
    -69, 102, 105, -6
[40] Cc1ccc(Nc2ncccc2C(=O)NC2CCCCC2)cc1
    -57, 104, 103, -25
[41] CC(C)(O)c1ccc(-c2ccccc2)cc1
    -40, 102, 102, -8
[42] COC(CNS(=O)(=O)c1cccc2cccnc12)OC
    3, 100, 96, 18
[43] O=C(NCCN1CCNC1=O)c1ccc(OC(F)(F)F)cc1
    -8, 100, 97, -5
[44] COc1ccc(/C=C/C(=O)Nc2ccccc2C(F)(F)F)cc1
    x, 99, 95, -7
[45] O=C(O)Cc1ccc(OC(F)F)cc1
    -20, 101, 106, -12
[46] Cn1c(SCC(=O)NCC2CCCO2)ncc(C(=O)Nc2ccc(F)cc2)c1=O (stereo unspecified)
    2, 104, 106, 0
[47] O=C(Nc1cccc(NC(=O)C2CC2)c1)C1CC1
    -8, 102, 106, x
[48] CC1CCCCN1S(=O)(=O)c1ccc2c(c1)oc(=O)n2C (stereo unspecified)
    -20, 105, 107, -8
[49] CN(CC1CCCO1)S(=O)(=O)c1ccc(C(=O)N2CCOCC2)cc1 (stereo unspecified)
    -8, 103, 98, -10
[50] Cc1cc(C(=O)N/N=C/N(C)C)nn1-c1c(Cl)cc(Cl)cc1Cl
    -12, 101, 101, -3
[51] Cc1nc2c(C)cccc2c2c1COC2
    11, 101, 94, i
[52] CCC(C)N(Cc1cn(CC)c2ccccc12)C(=S)Nc1ccc(C)cc1 (stereo unspecified)
    -57, 104, 103, 9
[53] Cc1nn(CC(=O)NCc2ccc3c(c2)OCO3)c(=O)c2c1sc1ccccc12
    -34, 100, 102, 34
[54] Cn1c(=NC(=O)c2cc(-c3ccccc3)nc3ccccc23)sc2cc(S(C)(=O)=O)ccc21
    -36, 104, 105, -7
[55] CN1/C(=C(/O)c2ccccc2)C(=O)c2ccccc2S1(=O)=O
    -29, 100, 99, 0
[56] COc1ccc(/C=N/N=C(N)N)cc1
    -22, 102, 103, 14
[57] CC(C)Oc1ccc(C(CC(=O)O)C(C)C)cc1 (stereo unspecified)
    -10, 100, 101, -3
[58] CCC(=O)N1CCc2cc(Br)cc(S(=O)(=O)CCC(=O)NCC3COc4ccccc4O3)c21 (stereo unspecified)
    -23, 103, 103, -4
[59] COc1ccc(-c2cc(C3CC3)[nH]c(=S)c2C#N)cc1
    -67, 105, 110, -1
[60] COc1ccc2ccccc2c1C=Nc1cccc(CO)c1
    -5, 108, 111, x
[61] CCC(CC)c1nnc(NC(=O)c2c(-c3ccccc3)noc2C)s1
    -5, 103, 102, 38
[62] O=C(COc1ccc2ccc(=O)oc2c1)NC1CC1
    x, 102, 105, 2
[63] CCn1c(SC(C)C(N)=O)nnc1-c1cccs1 (stereo unspecified)
    -1, 102, 104, 6
[64] Clc1ccc(-c2cnc3n2CCC3)cc1Cl
    -16, 99, 100, 1
[65] CN1C(=O)CS(=O)c2ccc(C(=O)NC3CC3)cc21 (stereo unspecified)
    9, 100, 103, -2
[66] OCCN1CCN(Cc2ccccc2)CC1
    -5, 102, 103, -18
[67] Cc1ccc(C)c2[nH]c(=O)c(C(c3nnnn3Cc3ccccc3)N3CCN(C)CC3)cc12 (stereo unspecified)
    -31, 103, 103, -32
[68] CC(C)(C)c1ccc(O)c(C(=O)Oc2ccccc2)c1
    -5, 107, 109, x
[69] O=C(c1ccccc1C(=O)N(c1ccccc1)c1ccccc1)N1CCCCC1
    -42, 105, 105, x
[70] Cc1nn(-c2ccccc2)c(Cl)c1/C=C1\C(=O)N(C)c2ccccc21
    x, 102, 98, 6
[71] CN(C)C(=O)CSc1nc(-c2ccccc2)cs1
    -29, 104, 101, 9
[72] Cc1occc1C(=O)NN
    -5, 102, 100, -8
[73] COc1ccccc1NC(=O)c1cccs1
    -13, 100, 103, 4
[74] CCNC(=O)c1ccc(-c2nc(CS(=O)c3ccc(C)cc3)c(C)o2)cc1 (stereo unspecified)
    -7, 105, 100, 70
[75] O=S(=O)(c1ccc2c(c1)CCCC2)N1CCNCC1
    -4, x, x, -5
[76] CCCCN(Cc1ccco1)C(=O)Cn1ncc2c(=O)oc3ccc(C)cc3c21
    -18, 103, 103, -5
[77] O=C(CSc1nc(O)cc(=O)[nH]1)N1c2ccccc2CCc2ccccc21
    12, 100, 99, 2
[78] O=C(O)c1ccccc1C(=O)c1ccc(-c2ccccc2)cc1
    9, 103, 94, 17
[79] CCOC(=O)N1CCC(N2CC34C=CC(O3)C(C(=O)Nc3ccc(C)cc3)C4C2=O)CC1 (stereo unspecified)
    -14, 100, 102, -4
[80] O=C(Nc1ccc(S(=O)(=O)N2CCCC2)cc1)c1ccc(COc2ccc3c(c2)CCC3)cc1
    -14, 99, 104, x
[81] Cn1cc(-c2cc(C(=O)O)on2)cn1
    -56, 103, 101, -2
[82] Nc1c(-c2ccccc2)nc2ccccn12
    3, 102, 102, 108
[83] O=C(Cn1cnc2ccccc2c1=O)N1CCc2ccccc2C1
    -5, x, x, -8
[84] CC(=O)Nc1ccccc1SCc1cc(=O)n2ccsc2n1
    -3, 101, 103, -5
[85] Cc1nc(CC(=O)Nc2cccc(Cl)c2)cs1
    -2, 101, 104, -8
[86] O=C(CSc1nccc(=O)[nH]1)NCc1ccccc1
    -31, 102, 98, -11
[87] Cn1cccc1C=NN1CCN(C2c3ccccc3-c3ccccc32)CC1
    -21, 106, 107, x
[88] CCNS(=O)(=O)c1ccc(NC(=O)Nc2cccc(C(F)(F)F)c2)cc1
    8, 98, 101, -14
[89] CC1=NN(c2ccccc2)C(C2=C(C)CCCC2(C)C)C1 (stereo unspecified)
    -12, 104, 104, -7
[90] COC(=O)Cn1c(=NC(=O)C(C)(C)C)sc2cc(S(N)(=O)=O)ccc21
    13, 98, 106, 11

Next records:
Fields – MenB inh, PV pol inh, PV pol inh intensity, MbtI inh
[91] COC(=O)c1sccc1NC(=O)Nc1cn(C)c(=O)c2ccccc12
    4, 98, 102, 51
[92] CC(C)CN(CC(C)C)S(=O)(=O)c1ccc(Br)s1
    -3, 104, 106, -9
[93] S=c1[nH]c2c(s1)C1c3ccccc3OCC1CS2 (stereo unspecified)
    -70, 99, 100, 50
[94] CC1(C)CC(=O)C2=C(C1)Nc1cc3c(cc1C2c1ccc(Cl)cc1)OCO3 (stereo unspecified)
    -17, 108, 113, x
[95] Cc1cc(C(F)(F)F)c2c(=O)[nH]c(=O)n(Cc3ccccc3)c2n1
    -20, 98, 104, 41
[96] CC(C)(C)c1ccc(C(=O)NC(=S)Nn2cnnc2)cc1
    8, 101, 108, 12
[97] COc1ccc(NC(=O)Cn2nnc(-c3ccc(S(C)(=O)=O)cc3)n2)cc1
    -12, 103, 104, -9
[98] O=C(c1ccc(S(=O)(=O)NC2CCCc3ccccc32)s1)N1CCCC1 (stereo unspecified)
    -17, 99, 101, -5
[99] O=c1cc(CSc2nnc3sc4ccccc4n23)c2ccc(Br)cc2o1
    -4, 108, 110, -18
[100] COc1ccc(-c2[nH]ncc2CN2CCN(C)CC2)cc1
    -13, 101, 103, -8
[101] S=C(SCc1cn2cccnc2n1)N1CCCC1
    -48, 102, 106, 17
[102] N=C(N)N1CCN(CC(O)COc2ccccc2)CC1 (stereo unspecified)
    1, 105, 102, -8
[103] Cc1ccc(N2CC(NC(=O)N3CCC(C(N)=O)CC3)CC2=O)cc1 (stereo unspecified)
    -15, 101, 100, -10
[104] CCSC1=C(C#N)C(C)(C)C(C#N)C(=O)N1 (stereo unspecified)
    -3, 98, 94, 6
[105] CCOC(=O)N1CCN(C(=O)CCc2ccc(S(=O)(=O)NC3CCCCC3)cc2)CC1
    -23, 101, 101, -7
[106] Cc1cc(COC(=O)c2cc(S(=O)(=O)NC3CC3)ccc2Br)no1
    -3, 102, 102, -4
